Screening results: PubChem BioAssay, National Center for Advancing Translational Sciences (NCATS)
NS1 inh – qHTS Assay for Inhibitors of Influenza NS1 Protein Function | 270,000 tested, 0.4% active | AID 2326, 2010 | Potency, µM (doses to about 46.1 µM), for the others: at the highest dose activity, positive = more growth | S. cerevisiae slowed by influenza A NS1, growth recovery by OD600; also: actives are rising curves; nearly all actives have a fitted effect of over 50% in size
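Recovery from NS1-induced slow growth read by OD600 in budding yeast switched to galactose assay medium (pH 6.0, -URA) at 1:100 dilution. Compound 23 nl per well; the matching strain lacking NS1 serves as control.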
Marburg entry inh – qHTS for inhibitors of binding or entry into cells for Marburg Virus | 300,000 tested, 1.8% active | Potency, µM (doses to about 37.8 µM), inactives show at the highest dose activity change, negative = inhibition, hits mostly inhibitors | Marburg virus pseudotyped entry inhibition, cell reporter; control for the full effect not named in the record; about a third of the inactives were read at about 46 µM; active = well fitted inhibition curve with a large enough effect; inconclusive = small, poorly fitted or top-dose-only effect, or effect the other way; inactive = flat fitted curve, though single readings scatter; tested in HEK293 cells; about a fifth of its hits are not listed in these tables; also: % is scaled to controls: 0 for no effect and ±100 for the full control effect; luciferase read-out
Cruzain noTriton – qHTS Assay for Promiscuous and Specific Inhibitors of Cruzain (without detergent); Cruzipain (Trypanosoma cruzi), P25779; purified cruzain, Z-FR-AMC fluorescence, no detergent; Potency, µM, inactives show max response, negative = inhibition, most hits filed as inhibitors; 200,000 tested, 2.3% active; active = well fitted curve in the direction sought with a large enough effect; inconclusive = small, poorly fitted or top-dose-only effect, or another doubt; inactive = no such curve, though single readings can be large; an effect the other way counts as inactive or inconclusive;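 also: plate controls were enzyme without inhibitor for no effect and buffer without enzyme for full effect; nearly all actives have a fitted effect of over 40% in size; top concentration of the series not given in the record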
Target sequence (P25779 123-467 limits assumed): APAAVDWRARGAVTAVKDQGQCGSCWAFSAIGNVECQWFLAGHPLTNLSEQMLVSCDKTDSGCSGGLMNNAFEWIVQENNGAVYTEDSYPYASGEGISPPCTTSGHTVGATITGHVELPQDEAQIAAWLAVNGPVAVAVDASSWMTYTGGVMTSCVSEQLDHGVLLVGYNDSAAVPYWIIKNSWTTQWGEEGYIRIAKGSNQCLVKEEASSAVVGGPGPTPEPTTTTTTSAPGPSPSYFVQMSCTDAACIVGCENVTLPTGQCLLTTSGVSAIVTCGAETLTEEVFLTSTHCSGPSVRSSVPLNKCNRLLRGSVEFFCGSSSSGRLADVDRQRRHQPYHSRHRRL
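Detergent-free condition (0.00005% Triton X-100) in acetate buffer pH 5.5 with DTT. 1.5 nM enzyme and compound were pre-mixed 15 min, then 2 uM Z-FR-AMC substrate added; reaction progress from fluorescence change between first and third reads (60 s).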
SARS PLP yeast – qHTS of Yeast-based Assay for SARS-CoV PLP; S. cerevisiae expressing SARS-CoV PLpro, growth rescue; control for the full effect not named in the record; Potency, µM (series often up to 32.9 µM), inactives show at the highest dose activity, positive = growth rescue; 330,000 tested, 0.19% active; AID 485353, 2010; also: 0% is about no effect; nearly all actives have a fitted effect of over 55% in size; growth read by luminescence after 48 h
Cruzain Triton – qHTS Assay for Promiscuous and Specific Inhibitors of Cruzain (with detergent). Cruzipain (Trypanosoma cruzi), P25779. purified cruzain, Z-FR-AMC fluorescence, 0.01% Triton. Potency, µM, for the others: max response, negative = inhibition, most hits filed as inhibitors. 200,000 tested, 0.43% active. AID 1478, 2009; active = well fitted curve in the direction sought with a large enough effect; inconclusive = small, poorly fitted or top-dose-only effect, or another doubt; inactive = no such curve, though single readings can be large; an effect the other way counts as inactive or inconclusive;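 also: plate controls were neutral wells for no effect and buffer without enzyme for full effect; nearly all actives have a fitted effect of over 40% in size; top concentration of the series not given in the record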
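Read-out: AMC fluorescence (360 nm excitation, 450 nm emission), four reads over 2 min, first-to-third difference used. Conditions: cruzain 1.5 nM, Z-FR-AMC 2 uM, pH 5.5 acetate, 5 mM DTT, 0.01% Triton X-100.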
2A StopGo – High Throughput Screening for Foot and Mouth Disease Virus Antivirals; human cells with a luciferase reporter of 2A StopGo recoding; control for the full effect not named in the record; Potency, µM (titrated, usually from 57.9 µM), for inactives: at the highest dose signal change, negative = less light; 410,000 tested, 1.2% active; AID 1159524, 2015; active = well fitted falling curve with a large enough effect; inconclusive = small, poorly fitted or top-dose-only effect; inactive = no such curve, though single readings can be large or run the other way; tested in HEK293T cells; also: % is scaled to controls: 0 for no effect and ±100 for the full control effect; nearly all actives have a fitted effect of over 45% in size; luciferase light after 4 h
RE007 growth inh – qHTS Assay for Inhibitors of the HIV-1 protein Vpr; S. pombe RE007 Vpr strain, BacTiter-Glo ATP luminescence, 24 h; control for the full effect not named in the record; AID 651644, 2012; 360,000 tested, 0.21% active; Potency, µM (series often up to 92.2 µM), without a hit: top-dose activity change, negative = less growth; active = well fitted falling curve with a large enough effect; inconclusive = small, poorly fitted or top-dose-only effect; inactive = no such curve, though single readings can be large or run the other way;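 also: % is scaled to controls: 0 for no effect and ±100 for the full control effect; nearly all actives have a fitted effect of over 50% in size; the assay follows cell death caused by Vpr and the record does not say whether a fall means rescue or toxicity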
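Fission yeast strain RE007, carrying one chromosomally integrated HIV-1 vpr copy, was seeded at OD 0.01 in PMG+AL medium with 23 nL pinned compound. After 24 h at 30 °C and 99% humidity, viability was read by BacTiter-Glo luminescence.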
LASV entry inh – qHTS for Inhibitors of binding or entry into cells for Lassa Virus; Lassa virus pseudotype entry inhibition, cell reporter; control for the full effect not named in the record; AID 540256, 2011; 300,000 tested, 1.2% active; Potency, µM (highest dose often 37.9 µM), for inactives: top-dose activity change, negative = inhibition, actives largely listed as inhibitors; active means well fitted inhibition curve with a large enough effect; inconclusive means small, poorly fitted or top-dose-only effect, or effect the other way; inactive means flat fitted curve, though single readings scatter; tested in HEK293 cells; also: % is scaled to controls: 0 for no effect and ±100 for the full control effect; nearly all actives have a fitted effect of over 50% in size; luciferase read-out
* = called active by the depositor; u = inconclusive; x = not tested or not shown; [ ] = another dose, or the depositor's remark. Unless noted, calls follow the shape of the dose curve; as a rule, active means well fitted rising curve with a large enough effect; inconclusive means small, poorly fitted or top-dose-only effect; inactive means no such curve, though single readings can be large or run the other way. Potency is read from the fitted curve at half-maximal effect.

#	molecule	RE007 growth inh	Cruzain noTriton	SARS PLP yeast	Cruzain Triton
1	CC1CCN(CC(=O)Nc2ccccc2C(=O)c2ccccc2)CC1	-16%	x	-2%	x
2	CC(C)(CC(=O)O)CC(=O)NCc1c(Cl)cccc1Oc1ccccc1	-10%	x	0%	x
3	CS(=O)(=O)N(CC(=O)NC1CCCCC1)Cc1ccc(Cl)cc1	12%	u	-8%	4.9%
4	COc1ccccc1NC(=O)CN1CCSc2ccccc21	6%	x	2%	x
5	O=C(/C=C\c1ccccc1)Nc1ccc(NC(=O)c2ccco2)cc1	-16%	x	-1%	x
6	O=C(O)CCCN1C(=O)C(=O)/C(=C(/O)c2ccccc2)C1/C=C/c1ccccc1 (configuration not stated)	-1%	x	0%	x
7	O=C(c1cc(F)ccc1F)N1CCC(N2CCC(C(=O)N3CCCC3)CC2)CC1	17%	x	-2%	x
8	COc1cccc(-c2ccc3c(N)c(C(=O)Nc4cc(C(F)(F)F)ccc4OC)sc3n2)c1	x	2%	x	1.2%

#	NS1 inh	LASV entry inh	2A StopGo	Marburg entry inh
1	2%	1%[46.1 µM]	-7%	u
2	5%	1%[46.1 µM]	2%	-17%[46.1 µM]
3	25%	13%	11%	9%
4	x	u	20%	10%[46.1 µM]
5	x	-27%	-21%	-13%[14.2 µM]
6	10%	-22%	-10%	10%[46.1 µM]
7	5%	-1%[46.1 µM]	15%	u
8	x	11%[46.1 µM]	42%[activator]	14%[46.1 µM]

New compounds follow.
#	molecule	RE007 growth inh	Cruzain noTriton	SARS PLP yeast	Cruzain Triton
9	COc1ccccc1Oc1cc(F)nc(N)n1	7%	11%	-7%	2.5%
10	COc1ccccc1OCCCc1c(C)n[nH]c1C	-24%	-6%	-25%	0.4%
11	CNc1ccc(C(=O)OCC(=O)NC(=O)NC2CCCCC2)cc1[N+](=O)[O-]	4%	x	1%	x
12	O=C(/C=C/c1ccccc1Br)c1ccc2c(c1)OCO2	-24%	x	-21%	x
13	CCN1CCN(Cc2nc3c(c(=O)n(C)c(=O)n3C)n2C(C)C(C)=O)CC1 (configuration not stated)	8%	-13%	u	2.5%
14	O=C(NCc1ccc(Cl)cc1)c1cc(=O)nc2sc(-c3ccccc3)nn12	2%	-15%	7%	-1.9%
15	CC1(C)CC(=O)C=C(Nc2ccc(O)c(C(=O)O)c2)C1	5%	x	3%	x
16	Cc1cccc(-c2nc(CN3CCCC(C(=O)NC4CCCC4)C3)c(C)o2)c1 (configuration not stated)	5%	0%	1%	-0.4%

#	NS1 inh	LASV entry inh	2A StopGo	Marburg entry inh
9	8%	18%	-8%	-3%
10	-194%	42%[14.3 µM]	-1%	-12%
11	x	-18%[46.1 µM]	-16%	-23%[46.1 µM]
12	-38%	u	-8%	13%[46.1 µM]
13	-2%	22%	-7%	0%
14	-4%	u	9%	-26%
15	u	x	11%	x
16	-1%	7%	-18%	15µM*

The results go on:
#	molecule	RE007 growth inh	Cruzain noTriton	SARS PLP yeast	Cruzain Triton
17	Cc1ccc(-n2ccnc(NCCc3ccc(S(N)(=O)=O)cc3)c2=O)cc1C	x	-12%	x	-11%
18	CC1CCCC(C)N1C(=O)COC(=O)c1cc(=O)[nH]c2ccccc12 (configuration not stated)	-7%	x	5%	x
19	CCCc1cc(=O)oc2c(C)c(OCC(=O)Nc3cccnc3)ccc12	-5%	x	-5%	x
20	Cc1ccc(C)c(NC(=O)C2(C)CC3c4ccccc4C2c2ccccc23)c1 (configuration not stated)	-9%	6%	6%	3.4%
21	Cc1ccc(-c2nc(CSCC(=O)NCCN3CCN(Cc4ccccc4)CC3)c(C)o2)cc1	-13%	0%	8%	2.0%
22	CCOC(=O)c1c(N)n(-c2cccc(C)c2C)c2nc3ccccc3nc12	x	-8%	x	0.1%
23	Cc1ccoc1C(=O)Nc1ccc(CC(=O)O)cc1	-14%	-3%	2%	-0.5%
24	CCO[C@H]1OC(C(=O)N2CCN(Cc3ccccc3)CC2)=C[C@@H](c2ccccc2)[C@@H]1CCCO	17%	x	0%	x

#	NS1 inh	LASV entry inh	2A StopGo	Marburg entry inh
17	x	-4%[46.1 µM]	-19%	x
18	x	1%[46.1 µM]	22%	23%[46.1 µM]
19	-3%	16%[46.1 µM]	-21%	-9%[46.1 µM]
20	1%	u	-1%	-18%
21	-8%	u	u	u
22	x	-3%[46.1 µM]	-1%	x
23	7%	u	u	u
24	-4%	x	-26%	x

Additional entries.
#	molecule	RE007 growth inh	Cruzain noTriton	SARS PLP yeast	Cruzain Triton
25	CCOC(=O)C1=C(C)NC(=O)NC1c1cccnc1 (configuration not stated)	-9%	-1%	3%	9.8%
26	O=C1/C(=C\c2ccc(O)cc2)SC(=S)N1c1cccnc1	11%	x	0%	x
27	CCCC1CCC(C(=O)n2nc(N)c3cc4ccc(OC)cc4nc32)CC1 (configuration not stated)	-3%	u	-6%	-0.1%
28	CC(C)C(=O)N=c1sc2cc(F)cc(F)c2n1C	2%	-15%	20%	-3.5%
29	NC(=O)CN(Cc1ccccc1)S(=O)(=O)c1ccc2c(c1)OCCO2	-4%	x	7%	x
30	CC(C)c1ccccc1-n1c(SCC(=O)N2CCN(c3ccccc3)CC2)nnc1-c1cccnc1	0%	10%	-3%	-0.9%
31	O=C(OC1CCCCC1=O)c1cccc(S(=O)(=O)N2CCCCC2)c1 (configuration not stated)	-16%	x	-3%	x
32	Cc1ccc2c(c1)CCCN2C(=O)CCc1nc2ccccc2c(=O)[nH]1	27%	x	-9%	x

#	NS1 inh	LASV entry inh	2A StopGo	Marburg entry inh
25	15%	-2%	-4%	4%
26	4%	x	-14%	x
27	10%	-1%	-16%	2%
28	-6%	x	12%	x
29	7%	-3%[46.1 µM]	0%	-9%[46.1 µM]
30	2%	-19%	-8%	u
31	x	1%	-11%	u
32	x	u	u	u

Continued:
#	molecule	RE007 growth inh	Cruzain noTriton	SARS PLP yeast	Cruzain Triton
33	O=C(CCSc1nnc(-c2ccccc2)o1)N1CCOCC1	11%	-4%	6%	0.2%
34	Cc1[nH][nH]c(=O)c1N=Nc1ccc(Br)c(Cl)c1	-12%	x	x	x
35	COc1ccc(S(=O)(=O)NCCSc2nnnn2-c2ccccc2)cc1	x	-20%	x	-2.4%
36	O=C(CCNC(=O)C1CCN(S(=O)(=O)c2ccccc2)CC1)NC1CC1	0%	x	-2%	x
37	O=C(N/C(=C/c1ccccc1)C(=O)N1CCCCC1)c1ccc(Br)o1	-3%	x	-4%	x
38	O=C(NCc1ccccc1)c1nn(-c2ccccc2)nc1CO	x	-3%	x	1.6%
39	N#C/C(=N\Nc1ccc(F)cc1)C(=N)N1CCCCCC1	-12%	x	4%	x
40	Cc1ccccc1NC(=O)CN1C(=S)NC(C)(C)CC1C (configuration not stated)	-20%	14%	0%	-0.7%

#	NS1 inh	LASV entry inh	2A StopGo	Marburg entry inh
33	-10%	5%	24%	u
34	x	u	14%	12%[46.1 µM]
35	x	u	-1%	18%[46.1 µM]
36	0%	5%[46.1 µM]	-5%	-2%[46.1 µM]
37	-4%	-24%	74%[activator]	-3%
38	x	u	0%	u
39	x	u	-2%	u
40	21%	2%	3%	u

Fetched by compound from above:
#	molecule	RE007 growth inh	Cruzain noTriton	SARS PLP yeast	Cruzain Triton
36	O=C(CCNC(=O)C1CCN(S(=O)(=O)c2ccccc2)CC1)NC1CC1	0%	x	-2%	x
39	N#C/C(=N\Nc1ccc(F)cc1)C(=N)N1CCCCCC1	-12%	x	4%	x
35	COc1ccc(S(=O)(=O)NCCSc2nnnn2-c2ccccc2)cc1	x	-20%	x	-2.4%

#	NS1 inh	LASV entry inh	2A StopGo	Marburg entry inh
36	0%	5%[46.1 µM]	-5%	-2%[46.1 µM]
39	x	u	-2%	u
35	x	u	-1%	18%[46.1 µM]

Next entries follow.
#	molecule	RE007 growth inh	Cruzain noTriton	SARS PLP yeast	Cruzain Triton
41	COC(=O)CSc1nc2cc3c(cc2cc1C#N)OCO3	0%	1%	3%	1.1%
42	COc1ccc(S(=O)(=O)N2CCC(C(=O)N3CCc4ccccc4C3)CC2)cc1C	3%	7%	x	-3.4%
43	CCOc1ccc2[nH]c(=O)c(CN(CCOC)C(=O)N3CCOCC3)cc2c1	4%	0%	-5%	-10%
44	COC(=O)c1ccc(S(=O)(=O)NCc2cccc(OC)c2)n1C	11%	-11%	0%	0.2%
45	Nc1nnc(SCC(=O)c2ccc3ccccc3c2)s1	1%	32µM*	-6%	-4.8%
46	O=C(CC(c1ccccc1O)N1CCCCC1)N1CCCCC1 (configuration not stated)	-3%[3.69 µM]	4%	1%	5.7%
47	O=C(Oc1ccc2c(c1)OCO2)c1ccc(Br)c(S(=O)(=O)N2CCOCC2)c1	-12%	-16%	-2%	-6.5%
48	Cc1cccc(CC(=O)N2CC(=O)Nc3ccc(F)cc3C2c2ccccc2)c1 (configuration not stated)	x	2%	x	-5.9%
49	O=C1NC(=Nc2ccccc2)S/C1=C/c1cccnc1	-5%	x	2%	x

#	NS1 inh	LASV entry inh	2A StopGo	Marburg entry inh
41	-9%	u	41%[activator]	u
42	-12%	-20%	-15%	-16%
43	0%	9%	-14%	22%[46.1 µM]
44	2%	-10%	23%	u
45	21%	u	34%[activator]	u
46	-12%	14%	61%[activator]	u
47	24%	-16%	u	-2%
48	x	-25%[46.1 µM]	-24%	-13%[46.1 µM]
49	x	7%	46%[activator]	-3%[46.1 µM]
